# Bioassay records: PubChem, National Center for Advancing Translational Sciences (NCATS)
# Vaccinia mCherry – qHTS for Stage-Specific Inhibitors of Vaccinia Orthopoxvirus: mCherry Reporter Primary qHTS | Vaccinia virus mCherry reporter infection, fluorescence; about a quarter of the inactives have no number | Potency, µM (highest dose often 36.5 µM), for the others: at the highest dose activity change, negative = inhibition, most hits filed as inhibitors | hit rate 0.63% among 310,000; active = well fitted inhibition curve with a large enough effect; inconclusive = small, poorly fitted or top-dose-only effect; inactive = no such curve, though single readings can be large or run the other way; tested in A549 cells; note: nearly all actives have a fitted effect of over 35% in size; inactives centre near -10
# VACV Venus inh – qHTS for Stage-Specific Inhibitors of Vaccinia Orthopoxvirus: Venus Reporter Primary qHTS; Vaccinia virus Venus reporter expression, fluorescence; Potency, µM (doses to about 36.5 µM), without a hit: top-dose activity change, negative = inhibition, hits mostly inhibitors; hit rate 0.46% among 330,000; AID 720580, 2013; active means well fitted inhibition curve with a large enough effect; inconclusive means small, poorly fitted or top-dose-only effect; inactive means no such curve, though single readings can be large or run the other way; tested in A549 cells; note: nearly all actives have a fitted effect of over 30% in size; inactives centre near -10
# * hit, by the source's call; i = inactive; ? = inconclusive; · = not tested or not shown; & = joins results of further samples; [ ] = dose if it differs, or a comment. % is set by controls: 0 for no effect and ±100 for the full control effect; potency is the fitted concentration of half-maximal effect.
SMILES,Vaccinia mCherry,VACV Venus inh
CCCN1C(=O)C(=O)c2cc(C)ccc21,i,-3.0%
CCS(=O)(=O)c1ccc2c(c1)N(S(=O)(=O)c1ccc(Cl)cc1)CC(C(=O)O)O2 (configuration not stated),-10.0%,-0.3%
C[C@@H](CN=[N+]=[N-])CN1CC[C@H](O)CCC1=O,-13.9%,-13.8%&-8.3%
N#Cc1c(N)nc2c(c1-c1ccc3c(c1)OCO3)CCCCCC2,·,?
CCOC(=O)C1CCN(C(=O)C2CCN(c3nnc(C)c4c(C)n(-c5ccccc5)nc34)CC2)CC1,-4.3%,-8.8%
Cc1ccc(OCC(=O)NCC(=O)OCc2cc(=O)n3nc(CC(C)C)sc3n2)cc1,2.1%,0.4%
CC(C)NC(=O)c1ccccc1NC(=O)Cc1ccc(Cl)cc1,-8.5%,-6.4%
CC(C)(Oc1ccc(Cl)cc1)C(=O)NCC(c1ccco1)N1CCCCC1 (configuration not stated),-9.3%,-13.5%
O=C(O/N=C1\CCS(=O)(=O)c2sccc21)c1c(F)cccc1F,-15.9%,-12.7%
C1=C2C[N+]3(CCCC3)CC2Cc2ccc3ccccc3c21 (configuration not stated),-12.6%[1.46 µM],-19.9%
CC1CN(CCCCOc2cccc(Oc3ccccc3)c2)CC(C)O1 (configuration not stated),-7.1%,-11.0%
CCn1nc(C)c(C2C(C#N)=C(N)OC3=C2C(=O)CCC3)c1C (configuration not stated),-20.2%,-4.5%
COC(=O)CNC(=O)COC(=O)c1cc(SC)ccc1Cl,-22.9%,-5.2%
Cn1cnc(C(=O)N2CCc3ccccc3C2)c1C(=O)N1CCc2ccccc2C1,i,-0.2%
COc1ccc(NC(=O)CN2CCCN(S(=O)(=O)c3ccc(Br)cc3)CC2)c(OC)c1,-4.6%,-8.8%
COc1cc(C(=O)NCC(c2ccco2)S(=O)(=O)c2cccs2)cc(OC)c1OC (configuration not stated),-12.1%,-6.9%
C=CCN(CC=C)Cc1c[nH]c2ccccc12,i,-7.3%
O=C(NCc1cccc(Cl)c1)c1cccc2c(-c3cccnc3)coc12,-3.9%,-9.5%
CCNc1ccc(C(=O)OCC(=O)NCc2ccccc2Cl)cc1[N+](=O)[O-],-10.1%,-9.4%
COC(=O)C1=CO[C@@H](O)C2C(CO)=CCC12 (some centres not stated),26.4%,2.7%
Cn1nc(-c2ccc(Cl)cc2)c2cc(C(=O)NCc3ccco3)sc21,2.0%,-19.4%
Cn1c(=O)c2c(ncn2Cc2ccc(Cl)cc2)n(C)c1=O,-7.0%,-3.9%&-2.3%
O=C1NCCCC1C(=O)N/N=C/c1cccc(O)c1 (configuration not stated),i,-4.4%
Cc1nc2ccccc2nc(C)c1=NOCC(=O)N(c1ccccc1)C(C)C,-33.0%,-16.0%

# Four of the compounds above, with values under each structure:
# Values run as follows: Vaccinia mCherry, VACV Venus inh
- COc1cc(C(=O)NCC(c2ccco2)S(=O)(=O)c2cccs2)cc(OC)c1OC (configuration not stated)
    -12.1%, -6.9%
- Cn1nc(-c2ccc(Cl)cc2)c2cc(C(=O)NCc3ccco3)sc21
    2.0%, -19.4%
- COC(=O)C1=CO[C@@H](O)C2C(CO)=CCC12 (some centres not stated)
    26.4%, 2.7%
- Cn1cnc(C(=O)N2CCc3ccccc3C2)c1C(=O)N1CCc2ccccc2C1
    i, -0.2%

# The list goes on:
SMILES,Vaccinia mCherry,VACV Venus inh
Cc1ccn2cc(C(=O)NCc3ccco3)nc2c1,-15.5%,-7.5%
COc1ccc(CN(C)S(=O)(=O)c2nnc(NC(=O)c3ccccc3)s2)cc1OC,i,-3.5%
C/C(Cl)=C\Cn1c(Nc2ccc(C)cc2)nc2c1c(=O)n(C)c(=O)n2C,i,-8.4%
Cc1cccc(N2CCN(C(=O)c3ccc(NS(=O)(=O)c4ccc5[nH]c(=O)[nH]c5c4)cc3)CC2)c1C,-3.3%,-20.3%
COc1ccc(NC(=O)CN(C)C(=O)c2oc3ccccc3c2C)cc1,-9.3%,-4.5%
Cc1cc(F)c(F)c(C(=O)NC2CC2)c1Cl,-1.2%,-0.5%
COc1ccc(-c2ccc(NS(=O)(=O)c3cc([N+](=O)[O-])ccc3C)cc2)nn1,-8.5%,-7.4%
Cc1ccc2ccccc2c1C(O)c1ncc(-c2ccc(F)cc2)[nH]1 (configuration not stated),30.4%[activator],2.3%
Cc1ccc(NC(=S)NC(=O)c2c(-c3ccccc3Cl)noc2C)cc1,-14.6%,0.8%
Cc1csc2nc(CNC(=O)C3CCCCC3)cn12,-8.8%,7.1%
COc1ccc(-c2nnc(SCC(=O)O)n2Cc2ccccc2)cc1,-6.3%,-12.5%
Cc1ccc(OS(=O)Nc2cccc3nccnc23)cc1 (configuration not stated),-9.0%,-28.3%
CCOC(=O)c1cnc(SCc2ccc(Cl)c(Cl)c2)nc1N1CC1,?,?
COc1cccc(C(=O)NCCS(=O)(=O)NCCCc2ccccc2)c1,-14.6%,-13.2%
Cc1cccc(NC(=O)c2cccc(N3C(=O)C4CCC(C)CC4C3=O)c2)c1C (configuration not stated),-3.3%,-12.6%
CC(C)COc1ccc(C(=O)Nc2ccc(S(=O)(=O)Nc3ncccn3)cc2)cc1,-10.8%,-3.4%
O=C(O)c1c[nH]c2ccc([N+](=O)[O-])cc2c1=O,i,-2.9%
COc1ccc(-c2cc(C(F)(F)F)n3nc(C(=O)NCC45CC6CC(CC(C6)C4)C5)cc3n2)cc1,8.6%,4.7%
CC(=O)n1cc([C@H]2C=C(C(=O)Nc3ccccc3)O[C@@H](OCc3ccc(CO)cc3)C2)c2ccccc21,-20.2%,?
COc1ccc(-c2nc(CS(=O)CC(=O)NCCC3=CCCCC3)c(C)o2)cc1 (configuration not stated),?,-30.0%
COc1ccc(S(=O)(=O)N2CCCCCC2)cc1NC(=O)c1c2c(nc3ccccc13)CCN(Cc1ccccc1)C2,-9.7%,-27.1%
O=C1C(=Cc2cccc(O)c2O)SC(=S)N1CCCN1CCOCC1,?,?
O=C(CCCc1ccccc1)Nc1cccc(C(=O)O)c1,i,0.4%
O=NN1CCN(c2ccncc2S(=O)(=O)N2CCCCC2)CC1,i,-26.0%
CCCN(C(=O)c1nn(-c2ccc(OC)c(Cl)c2)c(=O)c2c1c1ccccc1n2C)c1ccccc1F,-8.1%,9.4%
CC(C(=O)N1CCCCC1)n1ncn2cccc2c1=O (configuration not stated),·,0.8%
CCOc1ccc(S(=O)(=O)N(CCO)CCO)cc1-c1nc2c(C(C)(C)C)nn(C)c2c(=O)[nH]1,·,-27.4%
CCc1nc2c(OCc3cc(Cl)cc(Cl)c3)cccn2c1N(C=O)Cc1ccccc1,7.4%,-5.1%
CCOc1ccccc1C(=O)N1CCN(c2ccc(C(F)(F)F)cn2)CC1,i,-10.4%
CCN1CCN(CC(O)COc2ccc3c(C)cc(=O)oc3c2)CC1 (configuration not stated),-3.4%,-1.2%
COc1ccc(C(=O)NCCc2nnc(SCC(=O)Nc3ccccc3F)n2C)cc1,-21.9%,-0.4%
CC(=O)c1ccc(S(=O)(=O)Nc2ccc(-n3c(C)nc4ccccc4c3=O)cc2)cc1,-13.5%,-7.7%
CCn1c(CNC(=O)C23CC4CC(CC(C4)C2)C3)nnc1SC,-13.5%,10.5%
Cc1ccccc1Cn1c(C)nc2ccc([N+](=O)[O-])cc2c1=O,i,-9.7%
Cc1ccc(NS(=O)(=O)c2ccc(OCC(=O)N3CCOCC3)cc2)cc1,-14.6%,-11.5%
Cc1ccc(OCc2nnc(SCC(=O)C(C)(C)C)n2Cc2ccco2)cc1,·,-12.5%
CC(=O)Nc1ccc2c3c(cccc13)C(=O)N(c1ccccc1)C2=O,i,3.6%
Cc1ccccc1C(=NC(=O)c1ccccc1)c1ccccc1,·,-14.2%
COCCN(C(=O)c1ccc(COc2ccccc2)o1)c1c(N)n(CC(C)C)c(=O)[nH]c1=O,-0.7%,-0.5%
CCCCOc1ccc(S(=O)(=O)Nc2cccnc2)cc1,-21.3%,18.8%
COc1ccc(C(=O)N[C@H](C(=O)Nc2sccc2C(N)=O)C(C)C)cc1,-13.7%,-7.1%
O=C(c1ccc(Cl)nc1)N1CCN(C/C=C/c2ccccc2)CC1,-24.5%,-21.0%
CCOc1ccccc1C(=O)Nc1ccc(-n2nncc2-c2ccccc2)cc1,i,-18.6%
Nc1nonc1-n1nnc(C(=O)N/N=C/c2ccccc2Cl)c1CSc1ccccc1,-18.7%,-20.5%
O=C(Nc1nnc(C2=COCCO2)o1)c1cccc(Br)c1,?,-11.4%
O=C(CCS(=O)(=O)c1ccccc1)Nc1ccc2c(c1)C(=O)NC2=O,-2.2%,0.0%
CN(C)S(=O)(=O)c1ccc(NC(=O)c2cc(-c3cccs3)nc3ccccc23)cc1,i,-5.7%
COc1ccc(NC(=O)CC2C(=O)N(C)C(=S)N2Cc2ccco2)cc1 (configuration not stated),-15.1%,-7.8%
CC(=O)C1=CCC(c2ccco2)N(S(=O)(=O)c2ccc(C)cc2)C1 (configuration not stated),23.4%,-7.0%
CC[C@H](C)[C@@H]1NC(=O)c2cc([N+](=O)[O-])cc(F)c2NCCCC[C@@H](C(N)=O)NC(=O)[C@H](CCCCN)NC1=O,-22.2%,-5.5%
CSCCC(NS(=O)(=O)c1ccc2c(c1)Cc1cc(S(=O)(=O)NC(CCSC)C(=O)O)ccc1-2)C(=O)O (configuration not stated),0.0%,-4.5%
C/C(=C\c1ccccc1)C(=O)Nc1nccs1,-3.0%,-4.9%
CS(=O)(=O)c1ncc(N(Cc2ccco2)Cc2cccs2)c(C(=O)Nc2ccccc2F)n1,-6.3%,0.7%
CCOc1ccc(-n2cc(C(=O)c3cc(Cl)ccc3O)cc(C#N)c2=O)cc1,-14.5%,-6.4%
Cc1cc(Br)ccc1NC(=O)CN(C)C(=O)CCSc1ccc(F)cc1,-26.3%,?
CC(=O)c1cccc(NC(=O)N2CCCC2C(=O)NCCC(C)C)c1 (configuration not stated),-13.7%,-7.4%
O=C(COc1cccc(Cl)c1)N1CCC(c2nc3ccccc3o2)CC1,0.6%,-12.8%
Cc1cc2ccccn2c1C(=O)c1ccccc1F,-36.4%,-18.0%
CC1(C)NC(=O)N(CCOc2ccc([N+](=O)[O-])cc2)C1=O,i,-9.3%
COc1ccc(/C=C/C(=O)N(C)C2CCCCC2)cc1Br,-15.3%,-9.8%
# Carrying on.
SMILES,Vaccinia mCherry,VACV Venus inh
C=CCNC(=O)C12CCC(C)(C(=O)[C@H]1Br)C2(C)C (some centres not stated),-1.0%,-5.2%
CCN(CC)C(=O)c1ccccc1NC(=O)c1cccc(S(=O)(=O)N(CC)CC)c1,-18.7%,-15.6%
COC(=O)C1=C(C)NC(=O)/C1=C\c1cc(C)n(-c2cc(C)cc(C)c2)c1C,-25.1%,-9.6%
Cc1cccnc1NC(=O)CN1C(=O)c2ccccc2S1(=O)=O,-19.1%,-7.8%
C=CCn1c(O)c(/C=C2/C=c3ccccc3=N2)c(=O)[nH]c1=S,-22.8%,?

# Ordered by number of heavy atoms (descending): 17 of the compounds above
SMILES,Vaccinia mCherry,VACV Venus inh
CC[C@H](C)[C@@H]1NC(=O)c2cc([N+](=O)[O-])cc(F)c2NCCCC[C@@H](C(N)=O)NC(=O)[C@H](CCCCN)NC1=O,-22.2%,-5.5%
CSCCC(NS(=O)(=O)c1ccc2c(c1)Cc1cc(S(=O)(=O)NC(CCSC)C(=O)O)ccc1-2)C(=O)O (configuration not stated),0.0%,-4.5%
CS(=O)(=O)c1ncc(N(Cc2ccco2)Cc2cccs2)c(C(=O)Nc2ccccc2F)n1,-6.3%,0.7%
Nc1nonc1-n1nnc(C(=O)N/N=C/c2ccccc2Cl)c1CSc1ccccc1,-18.7%,-20.5%
CCN(CC)C(=O)c1ccccc1NC(=O)c1cccc(S(=O)(=O)N(CC)CC)c1,-18.7%,-15.6%
CCOc1ccccc1C(=O)Nc1ccc(-n2nncc2-c2ccccc2)cc1,i,-18.6%
CCOc1ccc(-n2cc(C(=O)c3cc(Cl)ccc3O)cc(C#N)c2=O)cc1,-14.5%,-6.4%
COC(=O)C1=C(C)NC(=O)/C1=C\c1cc(C)n(-c2cc(C)cc(C)c2)c1C,-25.1%,-9.6%
COc1ccc(NC(=O)CC2C(=O)N(C)C(=S)N2Cc2ccco2)cc1 (configuration not stated),-15.1%,-7.8%
O=C(CCS(=O)(=O)c1ccccc1)Nc1ccc2c(c1)C(=O)NC2=O,-2.2%,0.0%
CC(=O)C1=CCC(c2ccco2)N(S(=O)(=O)c2ccc(C)cc2)C1 (configuration not stated),23.4%,-7.0%
Cc1cccnc1NC(=O)CN1C(=O)c2ccccc2S1(=O)=O,-19.1%,-7.8%
C=CCn1c(O)c(/C=C2/C=c3ccccc3=N2)c(=O)[nH]c1=S,-22.8%,?
O=C(Nc1nnc(C2=COCCO2)o1)c1cccc(Br)c1,?,-11.4%
Cc1cc2ccccn2c1C(=O)c1ccccc1F,-36.4%,-18.0%
C=CCNC(=O)C12CCC(C)(C(=O)[C@H]1Br)C2(C)C (some centres not stated),-1.0%,-5.2%
C/C(=C\c1ccccc1)C(=O)Nc1nccs1,-3.0%,-4.9%
